Mtb MenB inh: Mtb MenB enzyme inhibition. AID 540299. 100,000 compounds, 0.43% hits. P9WNP5. inhibition, %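 (about 12 µg/mL by stock and volumes)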. MenB enzyme assay, absorbance read-out; some hits fall short of the stated cut;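 active = mean of two replicates above 30%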;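 note: 0% = no compound and 100% = wells with inactive enzyme; the first replicate is given; strong numbers were not always called active; inactives centre near -10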
MbtI inh: inhibitors of Mycobacterium tuberculosis siderophore enzyme MbtI. purified MbtI enzyme, fluorescence intensity read-out. 100,000 compounds, 0.89% hits. inhibition, %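 (about 17 µg/mL by stock and volumes)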;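 active = above 50% in both replicates, above 80% if mildly self-fluorescent; inactive = the rest, strongly fluorescent compounds included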;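 note: 0% = mean of negative and 100% = mean of positive controls; one replicate is shown; some compounds called inactive have numbers as strong as hits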
Target sequence (P9WFX0 whole entry, looked up): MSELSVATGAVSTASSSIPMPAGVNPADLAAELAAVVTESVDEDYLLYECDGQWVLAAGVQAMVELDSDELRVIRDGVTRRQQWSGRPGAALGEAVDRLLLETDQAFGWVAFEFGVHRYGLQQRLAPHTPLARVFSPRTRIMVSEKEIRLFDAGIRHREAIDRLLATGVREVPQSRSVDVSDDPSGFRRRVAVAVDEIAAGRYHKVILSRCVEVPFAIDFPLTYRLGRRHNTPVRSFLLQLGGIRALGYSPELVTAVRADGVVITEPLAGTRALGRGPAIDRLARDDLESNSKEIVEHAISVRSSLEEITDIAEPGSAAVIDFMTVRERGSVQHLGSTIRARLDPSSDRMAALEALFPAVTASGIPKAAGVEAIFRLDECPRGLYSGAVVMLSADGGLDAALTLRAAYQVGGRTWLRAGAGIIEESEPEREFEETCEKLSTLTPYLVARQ
PV pol inh: inhibitors of poliovirus RNA polymerase binding and polymerization | poliovirus polymerase elongation, fluorescence polarization; stronger effect = lower value | 150,000 compounds, 0.66% hits | % elongation, % (compound at 16.7 µg/mL) | AID 588519 | P03300; in the data active = % elongation below about 90%; note: some results filed as inactive read as strong as hits
Target sequence (P03300 1749-2209 limits assumed): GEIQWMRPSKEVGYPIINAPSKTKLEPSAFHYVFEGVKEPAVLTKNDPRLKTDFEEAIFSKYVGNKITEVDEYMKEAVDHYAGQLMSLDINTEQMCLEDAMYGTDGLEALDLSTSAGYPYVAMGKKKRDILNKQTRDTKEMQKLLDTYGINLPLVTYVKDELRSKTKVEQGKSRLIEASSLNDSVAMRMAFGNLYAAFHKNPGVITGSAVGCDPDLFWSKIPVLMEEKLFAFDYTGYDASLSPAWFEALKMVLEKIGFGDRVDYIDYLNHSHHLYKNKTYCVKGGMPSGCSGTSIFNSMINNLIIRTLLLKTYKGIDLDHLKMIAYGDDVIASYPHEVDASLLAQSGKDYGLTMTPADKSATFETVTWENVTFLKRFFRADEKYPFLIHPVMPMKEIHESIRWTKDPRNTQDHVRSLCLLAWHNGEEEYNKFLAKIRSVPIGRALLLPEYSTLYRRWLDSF
PV pol inh intensity: further read-out of PV pol inh, marked with its call; % elongation; measured here: total intensity read-out; formula for this scale not given here;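 total fluorescence in place of polarization; lower means less elongation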
Numbers without * were called inactive; i = inactive; x = no result given; & = joins results of further samples. The order is random (roughly 1.7% active in at least one column).

Start of the data: the first 3 entries (preview)
SMILES	Mtb MenB inh	MbtI inh	PV pol inh	PV pol inh intensity
COc1cccc(NC(=O)Cn2c(=O)n(Cc3ccc(C(=O)NCc4ccco4)cc3)c(=O)c3ccccc32)c1	7	5	101	103
CC(C1CC2CCC1C2)n1c(COc2ccccc2F)nnc1SCCC#N (configuration not stated)	-37	-5	102	100
CCOc1ccc(NC(=O)Cn2c(=O)oc3cc(S(=O)(=O)N4CCCC4)ccc32)cc1	9	-2	101	101

This part in full, previewed entries included:
SMILES	Mtb MenB inh	MbtI inh	PV pol inh	PV pol inh intensity
COc1cccc(NC(=O)Cn2c(=O)n(Cc3ccc(C(=O)NCc4ccco4)cc3)c(=O)c3ccccc32)c1	7	5	101	103
CC(C1CC2CCC1C2)n1c(COc2ccccc2F)nnc1SCCC#N (configuration not stated)	-37	-5	102	100
CCOc1ccc(NC(=O)Cn2c(=O)oc3cc(S(=O)(=O)N4CCCC4)ccc32)cc1	9	-2	101	101
COC(=O)c1cccc(C(=O)Oc2ccc(OC(=O)c3cccc(C(=O)OC)n3)c(Cl)c2)n1	-1	-5	103	99
CCCN(CCC)C(=O)Cn1c(=O)n(CCCC(=O)NCc2ccc(C)cc2)c(=O)c2ccccc21	-1	-5	103	102
CNc1nc(N)c(C(=O)c2ccccc2)s1	-39	1	101	102
O=C1c2ccccc2C(=O)N1CC(=O)N(c1ccccc1)c1ccccc1	12	5	103	97
O=C(CONC1=NCCCCC1)Nc1ccc(Oc2ccccc2)cc1	-4	-6	106	108
COc1nc(N)c(C#N)c(-c2ccccc2)c1C#N	2	x	104	110
CC1CCCC(C)N1C(=O)CSc1nc2ccccc2o1 (configuration not stated)	x	-2	102	103
O=C(Nc1ccc(S(=O)(=O)N2CCOCC2)cc1)c1ccccc1	-10	-1	102	103
COc1ccc(CSc2ncn[nH]2)cc1	-22	-3	101	103
CN1C(=O)Cc2cc(S(=O)(=O)NCCN3CCN(c4ccccc4F)CC3)ccc21	-19	-12	100	102
CN1CCC(N(C)Cc2cc(=O)oc3cc4c(cc23)CCC4)CC1	-12	29	95	97
COC(=O)c1ccc(OCC(O)CN(Cc2ccccc2O)C2CCCCC2)c(OC)c1 (configuration not stated)	-10	-3	104	108
O=C(CC(NCCc1ccc(Cl)cc1)C(=O)O)c1ccc(Br)cc1 (configuration not stated)	-5	x	99	95
COC(=O)C(CC(C)C)NC(=O)c1c(-c2c(Cl)cccc2Cl)noc1C (configuration not stated)	-15	-2	104	102
CC1CCCC(C)N1C(=O)COc1ccc(C(=O)N/N=C/c2ccncc2)cc1 (configuration not stated)	3	18	102	106
COc1ccc(-c2c[n+](=O)c3c(n2[O-])CCC3)cc1	17	28	99	103
C=CCSc1nsc(N)n1	-7	-16	101	101
CCSc1nc2[nH]c(=O)cc(O)c2s1	-171	6	102	104
C=CCn1c(=S)sc2c(SCC(=O)N3CCc4ccccc43)ncnc21	-9	4	96	101
Cc1onc(-c2c(Cl)cccc2Cl)c1C(=O)N[C@@H]1C(=O)N2[C@@H]1SC(C)(C)[C@@H]2C(=O)O	3&9	-8&-13	100&100	101&103
CC1CCCCN1C(=S)Nc1ccc(S(=O)(=O)N2CCCCC2)cc1 (configuration not stated)	-18	-11	104	105
CC1CCN(S(=O)(=O)c2ccc(C(=O)Nc3sccc3C(N)=O)cc2)CC1	6	26	98	107

4 entries from above in a different format:
> COC(=O)c1cccc(C(=O)Oc2ccc(OC(=O)c3cccc(C(=O)OC)n3)c(Cl)c2)n1
  Mtb MenB inh: -1 | MbtI inh: -5 | PV pol inh: 103 | PV pol inh intensity: 99

> COc1nc(N)c(C#N)c(-c2ccccc2)c1C#N
  Mtb MenB inh: 2 | MbtI inh: x | PV pol inh: 104 | PV pol inh intensity: 110

> CC1CCCC(C)N1C(=O)COc1ccc(C(=O)N/N=C/c2ccncc2)cc1 (configuration not stated)
  Mtb MenB inh: 3 | MbtI inh: 18 | PV pol inh: 102 | PV pol inh intensity: 106

> CC1CCCCN1C(=S)Nc1ccc(S(=O)(=O)N2CCCCC2)cc1 (configuration not stated)
  Mtb MenB inh: -18 | MbtI inh: -11 | PV pol inh: 104 | PV pol inh intensity: 105

Going on with the list.
SMILES	Mtb MenB inh	MbtI inh	PV pol inh	PV pol inh intensity
CC(=O)NC1C(Oc2ccccc2)OC(CO)C(O)C1O (configuration not stated)	-7	-7	104	107
CCCNC(=O)c1[nH]c2ccccc2c1Sc1ccc(Cl)cc1	6	-7	104	108
CC(C)(C)NC(=O)CSc1nsc(SCC(=O)NC(C)(C)C)c1C#N	4	x	100	105
CCOc1ccc(NC(=O)CCC(=O)Nc2cc(OC)c(NC(=O)c3ccco3)cc2OC)cc1	-12	40	103	101
COc1ccccc1CCNCc1ccccc1C(F)(F)F	-9	4	101	107
COc1cc(NC(=O)N(C)C)cc(OC)c1OC	0	-4	100	101
NC(=O)CC1(Nc2ccccc2)CCN(Cc2ccccc2)CC1	x	-3	100	96
CCOC(=O)c1cnn(-c2ccc(C(F)(F)F)cn2)c1N	-6	-7	97	96
CCn1c(SCC(N)=O)nnc1C(C)Oc1ccc(C)cc1C (configuration not stated)	-19	-9	104	103
O=C1CN(C(=O)C2COc3ccccc3O2)c2ccccc2N1 (configuration not stated)	-46	-23	104	105
CCC(C)NC(=S)Nc1ccccc1 (configuration not stated)	30*	-6	98	102
CSc1nc2ccccc2c(=O)n1C	1	-9	105	107
CCCCc1ccc(NC(=O)Cn2c(C(C)O)nc3ccccc32)cc1 (configuration not stated)	x	-3	102	103
CN(C(=O)CSc1ncccc1C(=O)O)C1CCCCC1	3	2	106	101
CC1=NN(c2cccc(C(F)(F)F)c2)C(=O)C1	-168	18	100	106
c1cncc(CNCc2ccc3c(c2)OCO3)c1	20	0	101	101
COc1cccc(-c2nc(CS(=O)(=O)CC(=O)NC(C)c3ccccc3)c(C)o2)c1 (configuration not stated)	-2	17	99	104
O=C(O)c1ccn(COc2ccccc2)n1	-4	x	101	100
O=c1[nH]c(CSC2=NCCCN2)nc2ccccc12	-29	13	100	107
CC(c1ccco1)N(C(=S)Nc1cccc(Cl)c1)C1CCCCC1 (configuration not stated)	-29	-5	100	102
CC(OC(=O)C1CCCCC1)c1nc2ccccc2[nH]1 (configuration not stated)	14	-3	102	99
CC1=C(C#N)C(=O)N(CCc2ccccc2)C(=O)/C1=C/c1ccc(-c2ccc(S(N)(=O)=O)cc2)o1	-1	19	102	100
CC(=O)OC(C(=O)n1nc(C)cc1C)c1ccccc1 (configuration not stated)	-14	-9	104	106
O=C(CSc1nc(Nc2ccc3c(c2)OCO3)c2ccccc2n1)c1ccc(Cl)cc1	-35	24	98	102
CCOC(=O)c1csc(-c2ccc(C(F)(F)F)cn2)n1	-31	90	91	95

An excerpt of these results, bar-delimited:
SMILES | Mtb MenB inh | MbtI inh | PV pol inh | PV pol inh intensity
CC(=O)NC1C(Oc2ccccc2)OC(CO)C(O)C1O (configuration not stated) | -7 | -7 | 104 | 107
CC(C)(C)NC(=O)CSc1nsc(SCC(=O)NC(C)(C)C)c1C#N | 4 | x | 100 | 105
O=C(CC(NCCc1ccc(Cl)cc1)C(=O)O)c1ccc(Br)cc1 (configuration not stated) | -5 | x | 99 | 95

Following part
SMILES	Mtb MenB inh	MbtI inh	PV pol inh	PV pol inh intensity
COC(=O)C(F)C(OC)(OC)OC (configuration not stated)	1	-11	107	109
CCC(C)Cn1c(COC)nc2ccccc21 (configuration not stated)	-20	5	102	103
O=c1ccc2cc(S(=O)(=O)N3CCCC3)ccc2o1	-50	-29	101	102
N#Cc1ccc(OCc2ccc(F)cc2)cc1	-6	-6	103	100
Cc1ccc2c(c1)-c1onc(C(=O)N(CCC(C)C)Cc3ccco3)c1CO2	-7	-5	106	101
CCOC(=O)c1cc(C)n(CC2CCC(C(=O)NCc3ccco3)CC2)c1C (configuration not stated)	-2	1	100	101
CCCN(CC(=O)Nc1ccccc1C)C(=O)c1cn2ccccc2n1	4	-7	105	104
NNC(=O)COc1c(Br)cc(Br)c2cccnc12	8	4	103	96
COC(=O)CCNc1ccc2ccccc2c1	-18	i	100	104
O=C(CCCCl)Nc1ccc(C(O)(C(F)(F)F)C(F)(F)F)cc1	x	-1	104	97
CC(C)(C)NC(=O)CSc1nc2[nH]c(=O)cc(O)c2s1	-170	x	103	106
COc1ccc(/C=C2\N=C(SC)NC2=O)cc1	-168	2	103	105
N#Cc1cc(-c2ccccc2C(F)(F)F)no1	-60	-6	100	101
Cc1c(Cc2ccccc2)c(=O)oc2cc(OC(=O)c3ccco3)ccc12	-38	-29	98	100
N#CCCN1C(=O)c2cccc3c(Cl)ccc1c23	x	-3	101	113
CCOC(=O)CSc1nc(C)cs1	1	x	103	104
CCCC(=O)Nc1ccc2oc(=O)ccc2c1	-9	x	108	112
CCCn1nnc(NC(=O)COc2ccccc2)n1	-3	x	105	109
Cc1c2ccc(Cl)cc2s[n+]1C	-13	76	100	100
O=C(O)c1ccc(/C=N/O)cc1	-5	1	105	102
CN(C)Cc1ccccc1CNC(=O)CC1C=CCC1 (configuration not stated)	-5	-5	108	109
Cc1ccc(S(=O)(=O)Nc2ccc(-c3nnc4n3CCCCC4)cc2)cc1C	-19	0	106	119
COc1ccc(C(CC(=O)N2CCOCC2)c2ccc(F)cc2)cc1 (configuration not stated)	1	-18	102	105
Nc1cc(=O)[nH]c(SCc2nc(-c3cccs3)no2)n1	-11	18	101	101
Cc1cc(C(=O)NC(C)C2CCCO2)c(C)o1 (configuration not stated)	8	6	98	103
SMILES	Mtb MenB inh	MbtI inh	PV pol inh	PV pol inh intensity
Cc1ccc2nc(SCc3nc4cccc(C)n4c3Br)[nH]c2c1	-13	8	100	113
OCCn1c(-c2ccccc2)nc2ccccc21	x	2	101	102
COCc1c(C(=O)OCC(=O)c2ccc(OC(F)F)cc2)oc2ccccc12	-26	18	99	95
CC1(C)NC(=O)NC1=O	-3	x	100	102
Cc1ccc(S(=O)(=O)NC(=O)N2CCCN(C(=O)OC(C)(C)C)CC2)cc1	12	-12	106	107
COc1nc(N(C)C)nc(N(C)C)n1	-72	-7	103	97
O=C1c2ccccc2C(Nc2ccc(S(=O)(=O)N3CCCCC3)cc2)N1Cc1ccco1 (configuration not stated)	-5	-3	103	102
CC(=O)N(c1ccc(Br)cc1)C1C=CS(=O)(=O)C1 (configuration not stated)	7	-15	104	108
Cc1c(C(=O)O)sc2ncnc(N3CCCC3)c12	-61	14	104	104
COC(=O)c1ccccc1NC(=O)CSc1ccccc1	-13	x	101	101
CN(C)Cc1ccccc1CN	-17	-3	107	107
CSc1nnc2nc(C)cc(C)n12	-6	40	100	104
CCC(=O)/C=C1/Sc2ccc(C)cc2N1CC	0	1	103	100
COc1ccc(CCNCc2cccnc2)cc1	-3	2	103	102
Cc1nn(-c2ccccc2)c2sc(C(=O)NCc3ccccc3)cc12	x	2	103	99
CCn1c(=O)c(-c2ccc3ccccc3n2)cc2cc(Cl)ccc21	-23	x	110	107
CN(C)C1=NC(C(F)(F)F)(C(F)(F)F)N=C(c2cccnc2)O1	9	3	100	105
CCNc1sc2c(O)cc(=O)[nH]c2c1C#N	-331	2	98	104
CC(=O)N(C(C)=O)c1ccc(C)cc1	-46	-1	100	107
c1ccc2c(c1)CCCN2c1nc(N2CCOCC2)nc(N2CCOCC2)n1	16	2	101	97
COc1ccc(/C=C2\C(=O)Nc3ccccc32)c(OC)c1	-132	-10	108	110
O=C(O)C1C2C=CC(O2)C1C(=O)N1CCOCC1 (configuration not stated)	-14	0	102	102
CCOC(=O)Cc1nn(CC)c(=O)c2ccccc12	-5	17	102	103
COc1ccc(C2=Nn3c([n+](C)c4ccccc43)SC2)cc1	-2	13	99	100
CCOC(=O)N1C(=O)c2ccccc2NC1(C(F)(F)F)C(F)(F)F	-14	i	97	95

Five of the compounds above, as a markdown table:
| structure | Mtb MenB inh | MbtI inh | PV pol inh | PV pol inh intensity |
| --- | --- | --- | --- | --- |
| COC(=O)c1cccc(C(=O)Oc2ccc(OC(=O)c3cccc(C(=O)OC)n3)c(Cl)c2)n1 | -1 | -5 | 103 | 99 |
| CCCN(CCC)C(=O)Cn1c(=O)n(CCCC(=O)NCc2ccc(C)cc2)c(=O)c2ccccc21 | -1 | -5 | 103 | 102 |
| CNc1nc(N)c(C(=O)c2ccccc2)s1 | -39 | 1 | 101 | 102 |
| O=C1c2ccccc2C(=O)N1CC(=O)N(c1ccccc1)c1ccccc1 | 12 | 5 | 103 | 97 |
| O=C(CONC1=NCCCCC1)Nc1ccc(Oc2ccccc2)cc1 | -4 | -6 | 106 | 108 |

Further compounds.
SMILES	Mtb MenB inh	MbtI inh	PV pol inh	PV pol inh intensity
O=C(O)/C=C/c1ccc(S(=O)(=O)N(CCO)CCO)cc1	-5	-2	104	102
CCCN(CCC)S(=O)(=O)c1cccc(-c2cn3ccc(C)cc3n2)c1	-27	104	101	102
Cc1ccc(-c2cc(-c3cccs3)[nH]n2)c(O)c1	x	-8	102	96
O=C(CSc1ncnc2ccccc12)c1ccccc1	-15	-4	x	x
NNC(=O)c1ccccc1S(N)(=O)=O	4	17	98	93
O=C(O)c1cn(-c2ccccc2)nc1/C(=N\O)c1ccccc1	10	-7	100	103
CN(Cc1ccc(Cl)c(Cl)c1)Cn1nnc2ccccc2c1=O	0	30	108	115
Cc1ccc(-n2cnc3cc(N=Cc4nc5ccccc5n4C)ccc32)cc1	-19	-29	99	103
